CBX7 inh – CBX7 chromodomain binding inhibitors, primary screen, biochemical, AlphaScreen; AlphaScreen His6-CBX7 / biotin-H3K27me3 peptide binding; active compounds read low; 1.1% of 66,000 active; AID 1224903, 2016; Chromobox protein homolog 7 (Homo sapiens), O95931; normalised signal (fraction of DMSO) (concentration not given with the values); in the data active = normalised signal below about 0.5;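 also: 100 nL library stock added to about 20 µL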
Target sequence (O95931 whole entry, looked up): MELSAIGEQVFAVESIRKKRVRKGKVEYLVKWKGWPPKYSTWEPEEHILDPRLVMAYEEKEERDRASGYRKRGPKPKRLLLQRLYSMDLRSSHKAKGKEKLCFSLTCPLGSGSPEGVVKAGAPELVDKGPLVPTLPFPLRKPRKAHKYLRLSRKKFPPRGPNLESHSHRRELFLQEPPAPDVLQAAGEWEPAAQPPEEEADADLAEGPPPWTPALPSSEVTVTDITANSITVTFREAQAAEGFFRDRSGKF
CBX7 inh z-score – also measured in CBX7 inh; calls as there; z-score; measured here: z-score of CBX7 signal; some inactives read as strong as hits; reference of the scale not given here;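 same signal on another scale; lower means less binding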
Active calls of the source: *; & = joins results of further samples. Some of the compounds tested; the hit share may differ from the screen's.

SMILES	CBX7 inh	CBX7 inh z-score
CCc1ccccc1N(C)S(=O)(=O)c1ccc2[nH]cc(C(=O)NCCOC)c(=O)c2c1	1.03	0.351
O=C(Nc1cccc(C(F)(F)F)c1)c1nn(-c2ccc(Cl)cc2)c(=O)c2ccccc12	0.936	-1.52
CCOC(=O)c1[nH]c(=O)[nH]c1CSc1nc(C)cc(C)n1	0.92	-0.345
Cc1ccc(NC(=O)C(=O)NCc2ccccc2)cc1	1.01	0.396
COc1ccccc1Nc1ncc(C(=O)NCCc2ccc(Cl)cc2)c2ccccc12	1.02	0.489
Cc1ccc2nc(-c3ccsc3)c(Nc3c(C)cccc3C)n2c1	1.08	0.107
Cc1cccc(-c2noc(COc3cc(C)ccc3C)n2)c1	2.26	12.5
CCCNC(=O)c1ccc2c(c1)N(Cc1ccc(F)cc1Cl)C(=O)CS2	1.14	2.12
Cc1ccc2c(c1)C(O)(C1COC(C)(C)CC1=O)C(=O)N2 (stereo not drawn)	0.986	-0.386
CC1CCCCC1NC(=O)CCNS(=O)(=O)c1ccc2c(c1)CCC(=O)N2 (stereo not drawn)	1.16	3.02
O=C(NCc1ccccc1)c1cc(C2CC2)on1	1	0.0168
CCCc1nc(Nc2nc3ccccc3o2)ncc1C(=O)OCC	1.06	2.54
COc1cccc(Nc2cc(C)nc3nnnn23)c1	0.901	-1.33
OC(c1ccccc1)c1nc2ccccc2n1Cc1ccccc1F (stereo not drawn)	0.975&1.08	-0.699&0.104
COc1ccc(OC)c(NC(=O)c2c(NCc3cccc(OC)c3OC)sc3c2CCC(C)C3)c1 (stereo not drawn)	0.555	-6.23
Cc1ccc(CNC(=O)CSc2nc3nc(C)c(Cc4ccc(Cl)cc4)c(C)n3n2)cc1	0.95	-0.48
CCCCN(CC)CCNS(=O)(=O)c1ccc2c(c1)CCN2C(=O)CC	1.09	1.72
Cn1nc(-c2ccc(Cl)cc2)c2cc(C(=O)NC3CCN(Cc4ccccc4)CC3)sc21	1.14	0.606
Cc1sc(NC(=O)c2cccnc2)nc1-c1ccc(Cl)cc1	0.93&1.08	-0.791&1.33
CCCCN(CCCNC(=O)c1cc(-c2cccnc2)nc2ccccc12)Cc1ccccc1	0.814	-3.69
CCCNC(=O)Cn1cnc2sc(C(=O)NCC3CCCO3)c(C)c2c1=O (stereo not drawn)	0.96	-1.32
CCOc1ccccc1Nc1nc(-c2ccc(OC)c(OC)c2)cs1	0.914	-2.97
CCOC(=O)c1sc(NC(=O)CCOc2ccccc2)nc1C	1.04	1.27
Cc1ccc(CCNC(=O)c2csc3c2CCCC3)cc1	1.06	2.05
Fc1ccc(CNc2nnc(Cc3ccncc3)c3ccccc23)cc1	1.06	2.5
c1coc(-c2nnc(SCc3cccc4ccccc34)o2)c1	1.19	2.68
c1cn2c(NC3CCCCC3)c(-c3ccc(N4CCOCC4)cc3)nc2cn1	1.25	2.4
COc1ccc(C(=O)CC2(O)C(=O)N(C)c3ccccc32)cc1OC (stereo not drawn)	1.16	4.4
CC(=O)N1CCc2cc(S(=O)(=O)N3CCN(c4ccc(F)cc4)CC3)ccc21	1	0.0309
COc1ccc(C2CC(=O)N(CC(=O)Nc3ccc(Cl)cc3)c3ccccc3S2)cc1 (stereo not drawn)	0.944	-0.946
CCOC(=O)N1CCC(Nc2c(N3CCN(c4ccccn4)CC3)c(=O)c2=O)CC1	1.04	0.47
CCCCNC(=O)CCc1c(C)nc2cc(-c3ccc(Cl)cc3)nn2c1C	1.05	1.16
COc1ccc(Cl)cc1NC(=O)c1cnc2sccn2c1=O	0.876	-1.76
CC(C)CCNS(=O)(=O)c1ccc2c(c1)CCN2C(=O)CCCC(=O)O	1.18	1.32
O=C(CC1NCCNC1=O)Nc1cccc(Cl)c1 (stereo not drawn)	0.987	-0.289
O=C(Nc1c2c(nc3c1CCC3)CCCC2)c1ccccn1	0.14*	-11.5*
COc1ccc(OC)c(NS(=O)(=O)c2ccc3c(c2)CCN3C(=O)C2CC2)c1	0.992	-0.291
CCCC1=Nc2cc(C(=O)NCCN(CC)CC)ccc2Sc2ccccc21	1.33	3.99
CN(C(=O)C1CCCN1S(=O)(=O)c1ccc2c(c1)n(C)c(=O)c(=O)n2C)C1CCCCC1 (stereo not drawn)	0.952	-0.0634
CC1CC(C)CN(S(=O)(=O)c2ccc3c(c2)N(CC(=O)N2CCC(C(N)=O)CC2)C(=O)CO3)C1 (stereo not drawn)	1.02	0.468
O=C(CN1CCCC1)NCC1(c2ccccc2)CCCC1	0.987	-0.0838
COc1ccc(CNC(=O)C2CC(c3ccc(F)cc3)=NO2)cc1 (stereo not drawn)	1.07	3.22
C=CCn1c(=O)c(C(=O)Nc2ccc(F)cc2)c(O)c2ccccc21	1.04	0.607
CCC(=O)N1CCc2cc(S(=O)(=O)NC(CC(C)C)C(=O)NCc3ccc(F)cc3)ccc21 (stereo not drawn)	1.01	0.436
COc1ccc(CC(=O)NCC2(c3ccccc3)CCCC2)cc1	1.04	0.978
COc1ccc(C2CC(=O)Nc3cc4c(cc32)OCO4)cc1Cl (stereo not drawn)	0.942	-2.31
COc1ccc(-c2nc3cnccn3c2Nc2ccccc2C)cc1	1.12	1.29
Cc1cc(NC(=O)C2COc3ccccc3O2)no1 (stereo not drawn)	0.908	-0.99

A portion from further up, as a working copy:
SMILES	CBX7 inh	CBX7 inh z-score
CCCCNC(=O)CCc1c(C)nc2cc(-c3ccc(Cl)cc3)nn2c1C	1.05	1.16
COc1ccc(Cl)cc1NC(=O)c1cnc2sccn2c1=O	0.876	-1.76
CC(C)CCNS(=O)(=O)c1ccc2c(c1)CCN2C(=O)CCCC(=O)O	1.18	1.32
O=C(CC1NCCNC1=O)Nc1cccc(Cl)c1 (stereo not drawn)	0.987	-0.289
O=C(Nc1c2c(nc3c1CCC3)CCCC2)c1ccccn1	0.14*	-11.5*
COc1ccc(OC)c(NS(=O)(=O)c2ccc3c(c2)CCN3C(=O)C2CC2)c1	0.992	-0.291
CCCC1=Nc2cc(C(=O)NCCN(CC)CC)ccc2Sc2ccccc21	1.33	3.99
CN(C(=O)C1CCCN1S(=O)(=O)c1ccc2c(c1)n(C)c(=O)c(=O)n2C)C1CCCCC1 (stereo not drawn)	0.952	-0.0634
CC1CC(C)CN(S(=O)(=O)c2ccc3c(c2)N(CC(=O)N2CCC(C(N)=O)CC2)C(=O)CO3)C1 (stereo not drawn)	1.02	0.468
O=C(CN1CCCC1)NCC1(c2ccccc2)CCCC1	0.987	-0.0838
COc1ccc(CNC(=O)C2CC(c3ccc(F)cc3)=NO2)cc1 (stereo not drawn)	1.07	3.22
C=CCn1c(=O)c(C(=O)Nc2ccc(F)cc2)c(O)c2ccccc21	1.04	0.607
CCC(=O)N1CCc2cc(S(=O)(=O)NC(CC(C)C)C(=O)NCc3ccc(F)cc3)ccc21 (stereo not drawn)	1.01	0.436
COc1ccc(CC(=O)NCC2(c3ccccc3)CCCC2)cc1	1.04	0.978
COc1ccc(C2CC(=O)Nc3cc4c(cc32)OCO4)cc1Cl (stereo not drawn)	0.942	-2.31
COc1ccc(-c2nc3cnccn3c2Nc2ccccc2C)cc1	1.12	1.29
Cc1cc(NC(=O)C2COc3ccccc3O2)no1 (stereo not drawn)	0.908	-0.99

(more compounds)
SMILES	CBX7 inh	CBX7 inh z-score
COc1ccc(CC(=O)Nc2ccc3nc(N4CCN(C)CC4)cc(C)c3c2)cc1	1.03	0.957
Cc1ccsc1-c1nc(CSCC(=O)NCc2ccccc2Cl)c(C)o1	0.93	-1.31
Cc1onc(-c2ccccc2Cl)c1C(=O)NC1CCCCC1	1.08	2.7
Cc1cc(C(=O)NCCCc2ccccc2)n(-c2ccccc2)n1	1.04	1.04
CCC1=Nc2cc(C(=O)N3CCN(C)CC3)ccc2Sc2ccc(C)cc21	0.852	-2.13
CCC1Oc2ccccc2N(CC(=O)NCc2ccc(F)cc2Cl)C1=O (stereo not drawn)	1.11	1.77
Cc1cc(C(F)(F)F)n2ncc(-c3ccccc3)c2n1	0.994	-0.0396
CCOC(=O)c1ccc(NC(=O)CC2C(=O)N(c3cccc(OC)c3)C(=O)N2CCC(C)C)cc1 (stereo not drawn)	0.984	-0.659
CN1CCN(C(=O)CN2C(=O)COc3ccc(S(=O)(=O)N4CCCC4)cc32)CC1	0.986	-0.392
Cc1ccc(CNC(=O)c2cnn3c(C)c(Cc4c(F)cccc4Cl)c(C)nc23)cc1	0.896	-2.57
Cc1cccc(N(C)S(=O)(=O)c2ccc3[nH]c(=O)c(=O)[nH]c3c2)c1	0.973	-0.594
Fc1cnc(N2CCc3ccccc32)nc1N1CCc2ccccc21	1.13	5.4
CCCCOc1ccc(C(=O)Nc2cccc3c2C(=O)NC3=O)cc1	1.37	3.58
CCCCCn1c(CNC(=O)c2ccc(OC)c(OC)c2)nc2ccccc21	1.18	1.81
CCOc1ccccc1N(C)C(=O)c1nn(-c2cc(OC)cc(OC)c2)c(=O)c2ccccc12	0.662	-2.12
Cc1ccnc(N2C(=O)c3ccccc3C2Nc2c(C)cc(C)cc2C)c1 (stereo not drawn)	1	0.0807
CC(C)OCCCNC(=O)CN1C(=O)COc2ccc(S(=O)(=O)N3CCCCCC3)cc21	0.936	-2.09
Cc1ccc2c(C(=O)CNc3nccs3)c(C)[nH]c2c1	1.11	1.22
COc1ccccc1CNC(=O)CCCNC(=O)Cn1cnc2sc(C)c(C)c2c1=O	0.979	-0.423
Cc1c(C(=O)CN2CCOCC2)nnn1-c1nonc1N	1.03	1.55
Cc1ccccc1NC(=O)CN(C)S(=O)(=O)c1ccc2c(c1)CCC(=O)N2	0.972	-0.636
COc1ccc(Nc2ncc(C(=O)Nc3ccccc3OC)c3ccccc23)cc1	1.11	1.81
CCc1cc2c(N3CCN(Cc4nc5ccccc5[nH]4)CC3)ncnc2s1	0.845	-3.39
Cc1cccc(CCNC(=O)Cn2ncc3c2-c2cc(C)ccc2OC3)c1	0.978	-0.406
CCOC(=O)C1CCCN(c2c(Nc3cc(C)cc(C)c3)c(=O)c2=O)C1 (stereo not drawn)	1.09	1.94
NC(=O)Cn1c2ccccc2n2cc(-c3ccccc3)cc12	0.932	-1.8
O=C1c2ccccc2C(Nc2cccnc2)N1c1cccnc1 (stereo not drawn)	0.0687*	-15.6*
FC(F)(F)c1ccc(-c2noc(-c3cc(-c4ccncc4)nc4ccccc34)n2)cc1	1.05	0.525
Cc1c(Br)cc2nc(-c3cccc(F)c3)c(-c3cccc(F)c3)nc2c1C	1.29	1.92
COc1ccc(-c2nc(C)sc2CC(=O)O)cc1	1.11	0.746
Cc1ccccc1-c1nnc(SCC(=O)Nc2nc(-c3ccccc3)cs2)o1	0.995	-0.0108
CCOC(=O)c1ccc(NC2c3ccccc3C(=O)N2Cc2ccccc2)cc1 (stereo not drawn)	1.12	1.73
CCOc1ccc(S(=O)(=O)N(C)C)cc1-c1nc2c(C(C)(C)C)nn(C)c2c(=O)[nH]1	1.02	0.736
CCN1C(=O)c2ccccc2S(=O)c2ccc(C(=O)N3CCCC3)cc21 (stereo not drawn)	0.976	-0.574
CC1(C(=O)NCc2cccnc2)CCC(=O)N1CCN1CCOCC1 (stereo not drawn)	1.01	0.345
O=C(Nc1ccn(Cc2ccc(F)cc2)n1)c1ccncc1	1.08	0.842
Cc1ccc(C)c(NC(=O)CSc2ccc3nnc(-c4ccccc4)n3n2)c1	1.02	0.823
O=S1(=O)N=C(N(Cc2ccccc2O)c2cccc3ccccc23)c2ccccc21	0.633	-2.62
O=C(Cn1cnc2scc(-c3ccccc3)c2c1=O)Nc1ccccc1	1.04	1.23
CC1CCN(C(=O)CN2C(=O)CSc3ncccc32)CC1	1.02	0.0591
c1cncc(-c2nc3cnccn3c2NC2CCCCC2)c1	0.922	-1.25
CCOCCCNC(=O)c1cnn(-c2ccccc2)c1-n1cccc1	1.02	0.715
Cc1cccc(C(=O)Nc2c3c(nn2-c2ccc(F)cc2)CSC3)c1	1.07	1.17
CCn1cc(C(=O)NC2CCCCNC2=O)c(=O)c2ccc(C)nc21 (stereo not drawn)	1.08	0.834
CCOC(=O)N1CCC(NC(=O)Cn2nc(Cc3ccncc3)c3ccccc3c2=O)CC1	0.954	-0.945
Cc1ccnc(N2C(=O)c3ccccc3C2Nc2ccccc2C)c1 (stereo not drawn)	1.02	0.852
CC1=Nc2cc(C(=O)NC3CCCC3)ccc2Sc2c(C)ccc(C)c21	0.983	-0.266
Cc1cc(C)c2c(=O)[nH]n(C3CCOC(C)(C)C3)c2n1 (stereo not drawn)	1.19	2.12
Cc1c(Cl)cccc1NS(=O)(=O)c1ccc2c(c1)CCN2C(=O)C1CC1	0.766	-0.943
O=C1C2C3c4ccccc4C(C(=O)O)(c4ccccc43)C2C(=O)N1c1cccc(Cl)c1 (stereo not drawn)	1.03	0.439
Cc1ccc(N(C(=O)c2ccccn2)C2(C(=O)NC3CCCC3)CCCCC2)cc1	1.17	1.74
CCn1c(C(=O)Nc2ccc3c(c2)OCCO3)cc2sc(Cl)cc21	1	0.164
CN(CCCNC(=O)C1CCC(=O)N1Cc1ccc(F)cc1)c1ccccc1 (stereo not drawn)	0.896	-2.7
Cc1ccc2nc(-c3nonc3N)[nH]c2c1	0.806	-3.06
CCCCN(CC)S(=O)(=O)c1ccc(C(=O)Nc2ccc(-c3nc4ccccc4[nH]3)cc2)cc1	0.976	-0.558
O=C(NCCN1CCOCC1)C1CCC(=O)N1Cc1ccc(F)cc1 (stereo not drawn)	0.966	-0.956
COc1ccc(-c2cc(C(F)(F)F)n3nc(C(=O)NCCCN4CCOCC4)c(Cl)c3n2)cc1	0.982	-0.716
O=C(Cn1nc(-c2ccccc2)c2ccccc2c1=O)Nc1ccc(C(=O)N2CCCCC2)cc1	0.847	-1.75
CCOC(=O)N1CCC(N2Cc3cccc(C(=O)NCCCN4CCCC4=O)c3C2=O)CC1	1.04	0.304
CC(=O)N1CCC(N(C(=O)Nc2ccc(C)c(C)c2)C(C)C)CC1	1.17	1.3
Cc1cc2c(cc1C)C(c1ccccc1C)CC(=O)N2 (stereo not drawn)	1.07	2.04
CC(C)CC1Nc2ccc(C(=O)NCCCN3CCN(C)CC3)cc2NC1=O (stereo not drawn)	1.08	0.0935
COCCNC(=O)CN1C(=O)COc2ccccc21	1.09	1.36
